INS promoter inh = TRM-6 insulin promoter activity inhibition; inhibition, % at 2 µM; 130,000 tested, 0.9% active; TRM-6 cells (human fetal islet line), insulin promoter-eGFP reporter, imaging; reporter expression induced with tamoxifen;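 active means inhibition above the mean plus 3 SD, with well images judged a real hit on visual review, cut at about 60% in these data, passing the limit was not always enough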
GALR2 ag = agonists of human galanin receptor 2 (GALR2). 140,000 tested, 0.48% active. activation, %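 (tested at 5 µM)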. O43603. GALR2-expressing cells, agonist activation read-out;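 active means above mean plus 3 SD of all compounds, about 5% in these data, not always enough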;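 further: 0% = vehicle buffer wells and 100% = reference agonist at full effect; tested in CHO reporter cells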
RGS16-Gao HTS = RGS16-Galphao interaction regulator (human). bead-based flow cytometry RGS16-Galphao binding, fluorescence; actives lie on both sides. binding response (% of control), % at 10 µM. 220,000 tested, 0.38% active. AID 1441;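 active means below 25% or above 175%, edge rows of some plates excepted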;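 further: Galphao activated by GDP with aluminum fluoride before binding; 100% = wells without compound and 0% = beads without RGS; some results beyond the cut were filed as inactive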
HSV augment = HSV replication enhancement. HSV replication augmentation in cells, fold increase. maximum fold increase. 220,000 tested, 0.005% active. AID 1956;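 active means peak rise of 1.5-fold or more in the series; tested in PC3 cells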;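 further: first round at 10 µM; read as green reporter fluorescence; hits show the peak of a series up to 25 µM; 1 = signal of infected wells without compound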
PKD1 kinase inh = blocks activity of human protein kinase D1. Q15139. PKD1 kinase fluorescence polarization assay. inhibition, %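 (about 10 µM by stock and volumes)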. 200,000 tested, 0.056% active. AID 797;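 active means inhibition of 50% or more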;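 further: controls were vehicle for no effect and a reference inhibitor for full effect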
Target sequence (Q15139 whole entry, looked up): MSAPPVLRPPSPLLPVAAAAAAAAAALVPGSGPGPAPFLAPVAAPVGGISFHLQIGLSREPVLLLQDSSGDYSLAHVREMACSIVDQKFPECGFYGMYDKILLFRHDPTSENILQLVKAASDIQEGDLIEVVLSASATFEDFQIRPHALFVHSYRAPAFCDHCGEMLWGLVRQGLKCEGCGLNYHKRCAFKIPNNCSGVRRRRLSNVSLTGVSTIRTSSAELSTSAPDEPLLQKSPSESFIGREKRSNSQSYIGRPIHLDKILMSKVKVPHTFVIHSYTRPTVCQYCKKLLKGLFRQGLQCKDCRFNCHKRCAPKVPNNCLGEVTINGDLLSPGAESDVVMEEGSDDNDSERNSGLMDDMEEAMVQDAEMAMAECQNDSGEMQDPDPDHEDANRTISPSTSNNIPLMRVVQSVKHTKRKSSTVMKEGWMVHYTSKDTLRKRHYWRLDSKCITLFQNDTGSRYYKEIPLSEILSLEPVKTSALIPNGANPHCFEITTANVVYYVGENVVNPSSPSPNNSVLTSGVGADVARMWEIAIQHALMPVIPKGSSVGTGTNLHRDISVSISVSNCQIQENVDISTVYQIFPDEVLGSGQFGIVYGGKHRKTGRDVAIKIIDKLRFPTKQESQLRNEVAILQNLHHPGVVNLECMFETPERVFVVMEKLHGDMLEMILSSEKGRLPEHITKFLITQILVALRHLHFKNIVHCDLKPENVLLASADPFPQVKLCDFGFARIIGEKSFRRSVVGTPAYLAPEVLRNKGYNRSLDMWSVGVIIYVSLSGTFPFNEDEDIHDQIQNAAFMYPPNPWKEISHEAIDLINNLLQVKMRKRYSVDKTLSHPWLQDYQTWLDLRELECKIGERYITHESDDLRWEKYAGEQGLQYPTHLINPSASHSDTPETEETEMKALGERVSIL
INS promoter inh cell count = further read-out of INS promoter inh, marked with its call; normalized cell count, %; measured here: cell count, toxicity; reference of the scale not given here;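 cells exposed to compound for 48 h; stained nuclei by imaging scaled within each plate; lower means fewer cells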
HSV augment primary fold = second read-out of HSV augment, no call of its own (marks repeat the call); fold increase; compound at 10 µM; measured here: primary screen fold increase 10 uM; tested in PC3 cells;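 GFP signal in the first replicate; 1 = infected wells without compound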
Starred values were filed as active, the others as inactive; i = inactive; / = no result given.

Every second line gives: INS promoter inh	INS promoter inh cell count	GALR2 ag	RGS16-Gao HTS	HSV augment	HSV augment primary fold	PKD1 kinase inh
O=C(Cc1c(Cl)cccc1Cl)Nc1cccnc1
    /	/	/	102.6	i	0.98	9.0
CCN(CC(=O)NCc1cccs1)C(=O)c1ccc(S(=O)(=O)N(C)C)cc1
    /	/	/	104.4	i	1.02	-2.4
NS(=O)(=O)c1ccc(CCNC(=O)CSc2ccsc2[N+](=O)[O-])cc1
    -33.3	72.8	/	106.0	i	0.92	-4.8
Cc1ccc(C(=O)c2cnc3ccccc3c2-c2ccccc2)cc1
    /	/	0.2	99.5	i	0.95	6.1
Cc1cccc2cc(CN(CC3CCCO3)C(=S)Nc3ccccc3)c(=O)[nH]c12 (centres undefined)
    20.0	70.0	-0.9	103.7	i	0.99	14.5
CC(C)CN(C(=O)CN1CCCCCC1)c1c(N)n(CC(C)C)c(=O)[nH]c1=O
    -7.1	99.3	/	101.6	i	1.04	-2.9
Cc1ccccc1N(CC(=O)O)S(C)(=O)=O
    -475.0	43.0	-0.3	113.0	i	0.91	0.4
COc1cc(OC)c(OC)cc1CN1CCN(c2ccccc2OC)CC1
    -18.2	84.8	-2.6	130.6	i	1.07	-1.6
COc1ccc(S(=O)(=O)NC(CC(=O)O)c2ccco2)cc1 (centres undefined)
    28.6	85.9	-2.1	103.8	i	1.02	-6.0
CCCCOCCCNC(=O)CCCOc1ccccc1
    -40.0	106.9	-0.1	100.2	i	1.02	-0.6
CCO[C@H]1OC(C(=O)N2CCOCC2)=C[C@@H](c2coc3ccccc3c2=O)[C@@H]1CCCO
    /	/	/	97.5	i	0.93	7.7
COc1cc(CN2CCNC(=O)C2CC(=O)N2CCCO2)cc(OC)c1 (centres undefined)
    -20.0	87.4	/	93.7	i	0.71	-4.9
C=CCSc1nnc(-c2nnc(SCC=C)n2-c2ccccc2)n1-c1ccccc1
    30.8	39.0	0.0	98.3	i	0.9	4.5
COc1ccc2[nH]cc(/C=N/NS(=O)(=O)c3ccc(C)cc3)c2c1
    /	/	/	111.5	i	1.06	/
CC(C)(C)NC(=O)C(c1ccccn1)N(C(=O)C1CSC(=O)C1)c1ccccc1F (centres undefined)
    0.0	96.2	/	93.5	i	0.94	-1.6

Every second line gives: INS promoter inh	INS promoter inh cell count	GALR2 ag	RGS16-Gao HTS	HSV augment	HSV augment primary fold	PKD1 kinase inh
COCc1nnc(NC(=O)CC(C)c2ccccc2)s1 (centres undefined)
    -13.5	107.0	-0.6	100.3	i	0.91	-7.8
O=C(NCc1ccco1)c1cccn2c(=O)c3sccc3nc12
    20.0	142.3	1.9	/	i	0.91	25.4
CCC(C)NC(=O)CSc1ncccc1C(=O)O (centres undefined)
    /	/	-1.6	115.2	i	1.08	-6.0
Cc1ccccc1CN1C[C@@H]2C[C@@H](c3cn(C)nc3-c3ccccc3)N3CCC[C@@]23C1=O
    /	/	/	94.3	i	1.07	-5.1
CCC(=O)c1cc(F)ccc1OCC(=O)N1CCN(c2ccc(F)cc2)CC1
    /	/	/	99.1	i	0.95	1.9
Cn1cnc(C(F)(F)F)c1-c1ccc([N+](=O)[O-])cc1
    0.0	136.4	-0.5	102.8	i	1.01	-4.5
Cc1nc2cc3nc(C(F)(F)F)[nH]c3cc2[nH]1
    -3.3	131.1	-1.1	110.4	i	0.98	-9.1
Cc1ccnc(NC(=O)/C=C/c2cccs2)c1
    /	/	0.2	103.8	/	/	8.2
CCN(C(=O)CSc1nc2ccc([N+](=O)[O-])cc2s1)C1CCS(=O)(=O)C1 (centres undefined)
    33.3	57.9	/	99.9	i	0.98	-4.2
CC(C)N(Cc1nc(-c2ccccc2)no1)C(=O)CN(C)S(=O)(=O)c1ccc(Br)cc1
    -38.2	58.4	-2.3	99.6	i	0.7	-6.4
CC[C@@H](C)[C@H](NC(=O)OCc1ccccc1)c1nnc([C@@H](NC(=O)OCc2ccccc2)[C@@H](C)CC)o1
    /	/	/	97.0	i	0.83	/
Cc1ccc(C(=O)CCNc2ccc(F)c(Cl)c2)o1
    12.3	96.8	-1.7	24.3	i	0.93	-0.7
CCOc1cc2[nH]c(=S)n(Cc3ccc(C(=O)NCC(OC)OC)cc3)c(=O)c2cc1OCC
    42.1	87.4	-1.1	105.7	i	0.93	6.3
Cc1cc2cc(C#N)c(NCCNC(=S)NCCCN3CCOCC3)nc2cc1C
    -14.3	118.5	0.5	108.0	i	1.16	-4.0
COc1cc(C(Nc2ccc(S(=O)(=O)NCC3CCCO3)cc2)C(=O)NC(C)(C)C)cc(OC)c1OC (centres undefined)
    /	/	/	94.7	i	0.84	/

Reprinted at random: 4 records from the list.
Every second line gives: INS promoter inh	INS promoter inh cell count	GALR2 ag	RGS16-Gao HTS	HSV augment	HSV augment primary fold	PKD1 kinase inh
CC(C)N(Cc1nc(-c2ccccc2)no1)C(=O)CN(C)S(=O)(=O)c1ccc(Br)cc1
    -38.2	58.4	-2.3	99.6	i	0.7	-6.4
Cc1ccc(C(=O)CCNc2ccc(F)c(Cl)c2)o1
    12.3	96.8	-1.7	24.3	i	0.93	-0.7
Cc1ccnc(NC(=O)/C=C/c2cccs2)c1
    /	/	0.2	103.8	/	/	8.2
CCN(C(=O)CSc1nc2ccc([N+](=O)[O-])cc2s1)C1CCS(=O)(=O)C1 (centres undefined)
    33.3	57.9	/	99.9	i	0.98	-4.2

Next part.
Every second line gives: INS promoter inh	INS promoter inh cell count	GALR2 ag	RGS16-Gao HTS	HSV augment	HSV augment primary fold	PKD1 kinase inh
COc1c2c(nc3occc13)C(CC=C(C)C)(OC)C(O)CC2 (centres undefined)
    15.4	112.7	-1.4	103.4	i	0.933	0.8
S=C(c1cn(Cc2ccccc2)c2ccccc12)N1CCOCC1
    /	/	/	102.0	i	0.96	-0.6
O=S(=O)(NC1CC1)c1ccc(S(=O)(=O)N2CCC3(CC2)OCCO3)cc1
    -14.3	96.5	/	101.5	i	1.03	3.2
Cc1nn(C(=O)c2ccco2)c(C)c1CN1C(=O)c2ccccc2C1=O
    -13.6	65.7	-1.0	107.2	/	/	-14.3
CCOC(=S)N/C(=N\S(C)(=O)=O)c1ccccc1
    /	/	/	96.7	i	0.88	/
Cc1cc(-c2cc(-c3ccccc3)on2)nc(NCC2CC2)n1
    /	/	/	106.5	i	0.72	/
CC(=O)N1CCN(C(=S)c2cccc([N+](=O)[O-])c2)CC1
    -16.7	92.4	-0.3	104.4	i	0.93	-0.5
Oc1ccc(/C=N/Nc2cc(N3CCOCC3)nc(N3CCOCC3)n2)cc1
    -90.0	109.4	-0.2	/	i	0.71	2.4
Cc1ccc(C)c(OCCCC(=O)O)c1
    -4.5	86.2	-2.0	108.4	i	0.97	-2.0
COc1ccc2cc(CCNC(=O)C(C)C)c(=O)[nH]c2c1
    /	/	-0.5	90.1	i	0.97	-16.6
CN(C(=O)/C(N=Nc1cccc(C(F)(F)F)c1)=C(\O)C(F)(F)F)c1ccccc1
    -20.0	139.2	-2.2	93.6	i	1.02	-8.3
CC(C)N(C(=O)C1CC(=O)OC12CCCCC2)C(C)C (centres undefined)
    -59.3	87.2	-1.3	98.4	i	0.84	-5.2
COc1ccc(OC)c(-n2c(-c3cc(-c4ccccc4)n[nH]3)n[nH]c2=S)c1
    /	/	-0.5	27.2	i	1.13	-6.6
O=c1cc(-c2ccccc2)[nH]c2cc(F)ccc12
    -90.5	3.5	-1.4	103.0	i	0.67	-9.7
CCCCC(c1nnnn1CCOC)N1CCN(CC)CC1 (centres undefined)
    17.2	141.1	-1.2	111.1	i	0.85	-3.8

Every second line gives: INS promoter inh	INS promoter inh cell count	GALR2 ag	RGS16-Gao HTS	HSV augment	HSV augment primary fold	PKD1 kinase inh
COCCn1c(SCC(=O)Nc2cccc(OC)c2)nnc1-c1ccccc1
    -33.3	131.3	-1.8	99.4	i	1.01	-9.6
O=C(CNS(=O)(=O)c1cccc(Cl)c1)Nc1ccc(-c2nc3ccccc3s2)cc1
    -25.0	110.9	-1.2	93.7	i	0.93	1.4
CCCOc1ccc2oc(=O)c3c(c2c1)CCCN3C(=O)CN1CCN(C(=O)c2ccco2)CC1
    28.1	110.5	-1.3	112.3	/	/	3.2
CC(C)N(Cc1nc(-c2ccccc2)no1)C(=O)c1ccc([N+](=O)[O-])cc1
    /	/	/	105.4	i	1	11.9
Cc1ccccc1OCCNC(=O)CSc1ccc(C(F)(F)F)cc1[N+](=O)[O-]
    -35.7	124.3	-1.5	103.5	i	1.02	5.7
O=C(O)CSc1nnc(Cc2ccccc2)n1-c1ccccc1
    -213.3	75.3	-0.5	102.2	i	1.09	-9.6
COc1ccc(NC(=O)/C=C/C(=O)O)c([N+](=O)[O-])c1
    /	/	/	102.6	i	0.97	/
Nc1nnc(SCC(=O)OCc2ccc(Cl)c(Cl)c2)s1
    /	/	-2.6	100.1	i	0.99	-0.1
Cc1ccc(NC(=O)c2nc[nH]c2C(=O)N2CCOCC2)c(C(=O)c2ccccc2)c1
    /	/	/	102.3	i	1.03	-8.7
COc1ccc2[nH]c3c(=O)n4c(nc3c2c1)SCC4
    /	/	/	97.9	i	0.91	-1.3
Cc1ccc(S(=O)(=O)NCCC(=O)OCC(=O)Nc2cccc(S(=O)(=O)NC3=NCCCCC3)c2)cc1
    -63.6	114.7	/	95.7	i	0.93	-4.6
O=C1c2ccccc2NC(c2ccc(Cl)cc2Cl)N1Cc1ccccc1 (centres undefined)
    -39.1	104.8	-1.2	100.6	i	0.91	-2.9
Nc1nncn1C(=O)c1c(Cl)cccc1Cl
    -443.8	33.6	-2.7	105.4	i	0.76	-2.1
COC(=O)c1cnn2c1C(=O)N(Cc1cccs1)CC2
    /	/	/	100.5	i	0.89	-0.5
Cc1ccc(CSc2nnc([C@@H]3CCCN3)o2)cc1
    -13.5	158.5	-3.3	99.4	i	1.3	-7.1

Every second line gives: INS promoter inh	INS promoter inh cell count	GALR2 ag	RGS16-Gao HTS	HSV augment	HSV augment primary fold	PKD1 kinase inh
N#Cc1ccc(C(c2nnnn2Cc2ccccc2)N2CCCC2)cc1 (centres undefined)
    -59.0	200.0	-1.1	103.9	i	0.99	-9.2
COc1ccc(CC(=O)NNC(=O)Cc2ccc(OC)cc2)cc1
    /	/	/	94.7	i	0.91	1.1
C=C(C)CN(CC)C(=O)c1ccc(OC2CCN(S(=O)(=O)N(C)C)CC2)cc1
    /	/	/	78.0	i	0.97	0.1
CCOC(=O)C1C(c2ccc([N+](=O)[O-])cc2)C2C(=O)NN=C2CC1(C)O (centres undefined)
    /	/	/	98.1	i	1.07	/
COC(=O)c1c(N)n(CCCN2CCOCC2)c2nc3ccccc3nc12
    5.3	95.7	-0.8	117.2	i	0.98	-6.4
CCC1=[N+](CC(=O)c2ccc(Br)cc2)CCn2c(C)ccc21
    /	/	/	87.8	i	1.11	/
C=C(C)C(=O)N1CC2(CC(c3cccc(NC(=O)CCCCC)c3)=NO2)C[C@H]1C(N)=O (some centres undefined)
    /	/	/	95.6	i	0.93	/
Cc1ccc(CNC(=O)C2CCCN(c3nc(C)cc(C)n3)C2)cc1 (centres undefined)
    /	/	/	102.8	i	0.94	5.8
CCCOc1ccc(-c2nnn(CC(=O)c3ccc4c(c3)OCCO4)n2)cc1
    14.3	129.4	0.0	100.7	i	0.68	-4.6
Cc1cnn(C(=O)c2cc(-c3ccccc3)nc3ccccc23)c1
    /	/	-1.9	103.2	i	1.07	12.5
O=C(Nc1cccn(Cc2ccccc2)c1=O)NC1CCCCC1
    -17.1	78.7	-1.1	104.7	i	0.99	11.4
O=C(c1ccco1)N1CCN(c2ccc(Cl)c(Cl)c2)CC1
    0.0	77.9	0.2	/	i	1.1	-6.4
COc1cccc(C(=O)Nc2ccc(NC(C)=O)cn2)c1
    -31.6	18.8	-1.2	110.4	i	0.91	-8.8
O=C1NCCN1CCNS(=O)(=O)c1ccc(F)c(Cl)c1
    /	/	/	91.6	i	1	/
CSc1nc(-c2ccccc2)nc(SC)c1C(C)=O
    27.8	70.2	0.7	100.2	i	0.9	-3.1

Every second line gives: INS promoter inh	INS promoter inh cell count	GALR2 ag	RGS16-Gao HTS	HSV augment	HSV augment primary fold	PKD1 kinase inh
Cc1noc(C)c1C(c1ccccc1)c1ccccc1
    16.2	108.7	-1.6	104.2	i	1.05	2.2
COc1ccc(N(C(=O)c2ccc(S(=O)(=O)N3CCOCC3)cc2)C2C=CS(=O)(=O)C2)cc1 (centres undefined)
    /	/	-1.5	93.7	i	0.79	-5.0
Cc1nc2ncnn2c(N2CCN(C(=O)c3cccc(F)c3)CC2)c1C
    -6.2	86.9	0.9	101.4	i	0.9	1.5
CCC(=O)c1ccc2c(c1)OCCO2
    /	/	/	97.0	i	1.1	/
COc1cc(OC)cc(C(=O)NC(=S)N2CCN(c3ccc(C(F)(F)F)cc3[N+](=O)[O-])CC2)c1
    /	/	-4.8	100.3	i	0.91	4.8
COc1ccc(Nc2nc(C)cc(C)c2C(N)=O)cc1
    -7.7	103.8	-2.5	115.5	i	0.993	-2.0
CC1CCc2c(sc(NC(=O)COC(=O)c3ccc(O)cc3)c2C#N)C1 (centres undefined)
    -21.4	106.7	/	100.8	i	0.91	-1.4
